# Compound activity from PubChem BioAssay.
# Six1-Eya2 blk: blocks human Six1 binding to Eya2; Q15475+O00167; AlphaScreen GST-Six1/His-Eya2 binding, biochemical; stronger effect = lower value; control for the full effect not named in the record; 0.56% of 360,000 active; AID 651725; activity change, % (test concentration not listed); in the data active = activity change below about -65%; inconclusive = about -30% to -65%; inactive = above about -30%; note: compound concentration not given in the record
# Target sequence (O00167 whole entry, looked up): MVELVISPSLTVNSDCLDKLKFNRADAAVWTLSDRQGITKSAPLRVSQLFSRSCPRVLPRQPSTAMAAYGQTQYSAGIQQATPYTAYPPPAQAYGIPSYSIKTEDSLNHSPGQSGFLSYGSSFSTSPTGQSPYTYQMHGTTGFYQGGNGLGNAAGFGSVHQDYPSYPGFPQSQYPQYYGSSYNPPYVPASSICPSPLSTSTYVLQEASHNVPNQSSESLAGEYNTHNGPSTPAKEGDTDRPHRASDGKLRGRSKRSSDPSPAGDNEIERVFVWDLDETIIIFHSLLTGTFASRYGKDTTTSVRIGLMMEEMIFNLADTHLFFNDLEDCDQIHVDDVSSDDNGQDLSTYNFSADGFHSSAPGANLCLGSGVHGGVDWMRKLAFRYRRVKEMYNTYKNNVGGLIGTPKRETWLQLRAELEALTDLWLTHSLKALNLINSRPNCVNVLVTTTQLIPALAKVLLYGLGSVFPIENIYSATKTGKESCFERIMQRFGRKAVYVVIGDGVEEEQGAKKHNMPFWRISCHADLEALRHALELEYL
# Target sequence (Q15475 whole entry, looked up): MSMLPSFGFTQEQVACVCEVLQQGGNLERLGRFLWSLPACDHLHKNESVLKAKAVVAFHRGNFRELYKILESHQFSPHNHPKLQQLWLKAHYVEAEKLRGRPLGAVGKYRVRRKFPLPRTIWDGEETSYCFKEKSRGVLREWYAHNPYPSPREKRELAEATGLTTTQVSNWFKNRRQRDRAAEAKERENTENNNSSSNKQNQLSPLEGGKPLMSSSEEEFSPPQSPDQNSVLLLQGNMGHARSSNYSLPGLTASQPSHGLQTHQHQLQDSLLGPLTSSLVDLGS
#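 Six1/Eya2 binding was read as AlphaScreen signal after compounds were pinned into GST-Six1 plus His-tagged Eya2 (5X stock 250/500 nM) in pH 8.0 Tris/NaCl/TCEP buffer, beads added, then incubated 1 h, 37 C, dark.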
# CtBP-E1A inh: blocks the CtBP interaction with E1A; AlphaScreen GST-E1A/His-CtBP binding, 1536-well; stronger effect = lower value; control for the full effect not named in the record; activity change, % (concentration not given with the values); 0.49% of 340,000 active; AID 651724; in the data active means activity change below about -65%; inconclusive means about -30% to -65%; inactive means above about -30%
#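 In 5 uL wells, 23 nL compound meets equimolar GST-E1A and His-CtBP (5X stock 125 nM each) for 2 h, 37 °C. Beads (5X, 50 ug/mL) then 1 h, 37 °C, dark.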
# * marks the source's active call; other numbers are inactive results. % is set by controls: 0 for no effect and ±100 for the full control effect.
SMILES,Six1-Eya2 blk,CtBP-E1A inh
CC1(C(=O)Nc2ccc3c(c2)OCCO3)CN(S(C)(=O)=O)CC(=O)N1CCCN1CCOCC1 (stereo unspecified),12.8,-0.7
CC(C)CN1C(=O)CN(S(C)(=O)=O)CC1(C)C(=O)NC(C)C (stereo unspecified),2.5,1.9
CCCCCCCCCc1conc1C(=O)/C=C/c1oc2c(c1C)CCC(C)C2 (stereo unspecified),-1.7,0.8
O=C(Nc1ccc2c(c1)OCCO2)C(c1ccccc1)n1c(=O)c(-c2ccco2)nc2ccccc21 (stereo unspecified),-9.4,-3.1
COC(=O)C[C@H]1CC[C@H](NC(=O)Cc2ccccc2)[C@@H](CO)O1,10.7,7.5
COC(=O)[C@@]12C[C@@H](CC(=O)NCc3ccccc3)C(=O)N(Cc3ccc4c(c3)OCO4)C1=CCC(C)(C)C2,-9.0,-2.9
CCOC(=O)N1CCN(C(=O)C[C@@H]2C[C@@]3(C(=O)OC)CCCCC=C3N(Cc3ccc4c(c3)OCO4)C2=O)CC1,-3.5,-3.1
COC(=O)[C@@]12C[C@@H](CC(=O)N3CCN(C(=O)C4CC4)CC3)C(=O)N(Cc3ccco3)C1=CCC(C)(C)C2,-6.3,-3.8
CC(=O)N1CCN(C(C(=O)Nc2c(C)cccc2C)c2ccccc2OC(F)(F)F)CC1 (stereo unspecified),0.5,12.0
CCC(C(=O)NCc1ccccc1)n1c(-c2cccs2)nc2ccccc21 (stereo unspecified),-1.7,-3.9
COc1ccc(C(C(=O)Nc2c(C)cccc2C)N2CCN(C)CC2)cc1 (stereo unspecified),-2.6,7.7
CCCCCNC(=O)C(CCc1ccccc1)n1c(=O)c(-c2cc3ccccc3[nH]2)nc2ccccc21 (stereo unspecified),39.8,14.0
CCc1c(-c2ccccc2F)ncn1Cc1cccc(-c2ccccc2)c1,-15.3,4.2
Cc1csc(-c2nc3ccccc3n2C(C(=O)Nc2c(C)cccc2C)C2CC2)c1 (stereo unspecified),-4.2,0.2
Cc1cccc(C)c1NC(=O)C1(C)CSCC(=O)N1CCc1ccc(O)cc1 (stereo unspecified),-2.0,1.9
CC(C)(C)NC(=O)C(C1CC1)n1c(-c2ccccc2)nc2ccccc21 (stereo unspecified),-3.0,-1.2
CCCNC(=O)N[C@H]1CC[C@@H](CCn2cc(-c3cccc(F)c3)nn2)O[C@@H]1CO,13.2,-4.6
O=C(Nc1ccc2c(c1)OCCO2)C(c1ccc(C(F)(F)F)cc1)n1c(=O)c(-c2cc3ccccc3[nH]2)nc2ccccc21 (stereo unspecified),17.7,11.3
COC(=O)C[C@@H]1CC[C@H](NC(=O)CC2CC2)[C@@H](CO)O1,5.1,-1.8
Nc1c(-c2ccc(F)c(F)c2)nc2ncccn12,-5.5,0.9
CSCCC(c1nc2ccccc2[nH]1)n1c(-c2cc(C(F)(F)F)cc(C(F)(F)F)c2)nc2ccccc21 (stereo unspecified),-12.8,-1.7
CCOC(=O)[C@]12CCCC=C1N(Cc1ccccc1)C(=O)[C@H](CC(=O)NCC13CC4CC(CC(C4)C1)C3)C2,-3.6,0.0
O=C(C(=O)N1CCN(C(=O)c2ccco2)CC1)c1ccccc1,11.1,-13.6
CCCCCNC(=O)C(c1ccc(-c2ccccc2)cc1)n1c(=O)c(-c2cc3ccccc3[nH]2)nc2ccccc21 (stereo unspecified),2.6,15.9
O=C(Nc1ccc(F)cc1)C(c1ccncc1)N1CCN(C(=O)c2ccco2)CC1 (stereo unspecified),-4.9,3.2
SMILES,Six1-Eya2 blk,CtBP-E1A inh
CCCCNC(=O)C(NC(=O)c1ccccc1)C(=O)c1ccccc1 (stereo unspecified),-0.2,-1.1
Cc1cccc(C)c1N1C(=O)c2ccccc2NC(=O)C1C(=O)NCCOc1ccccc1 (stereo unspecified),0.4,2.3
CC1(C(=O)NCc2ccccc2)CN(S(C)(=O)=O)CC(=O)N1Cc1cccs1 (stereo unspecified),1.5,-7.8
C=CCOC(=O)Nc1nc(CCNC(=O)OC(C)(C)C)c(C(=O)OC)s1,5.4,3.6
CC(C)(C)NC(=O)C(c1ccc(C(F)(F)F)cc1)n1c(=O)c(-c2cc3ccccc3[nH]2)nc2ccccc21 (stereo unspecified),71.8,29.4
COc1cccc(Cn2c(C(C)n3c(C)nc4ccccc43)nc3ccccc32)c1 (stereo unspecified),0.2,3.1
O=C(NC1CCCC1)C(C1CC1)n1c(C2CCCC2)nc2ccccc21 (stereo unspecified),0.9,-1.8
Cc1cc2c(cc1C)-n1nnnc1C(N1CCN(c3ccccc3F)CC1)C(=O)N2 (stereo unspecified),-9.4,-1.5
COC(=O)C[C@H]1C=C[C@H](NS(=O)(=O)c2cn(C)cn2)[C@@H](CO)O1,0.9,1.0
CCOC(=O)[C@]12CCCC=C1N(Cc1ccccc1)C(=O)[C@H](CC(=O)N1CCOCC1)C2,-1.6,-1.7
COc1ccc(CN2C(=O)CN(S(C)(=O)=O)CC2(C)C(=O)Nc2c(C)cccc2C)cc1OC (stereo unspecified),8.9,-0.4
COC(=O)[C@@]12C[C@@H](CC(=O)NCCCN3CCCC3=O)C(=O)N(Cc3cccc4ccccc34)C1=CCC(C)(C)C2,-3.0,0.5
Cc1ccc(CN2C(=O)CSCC2(C)C(=O)Nc2c(C)cccc2C)cc1 (stereo unspecified),-4.6,-0.9
N#Cc1ccc(C(C(=O)NC2CCCCC2)n2c(=O)c(-c3ccccc3)nc3ccccc32)cc1 (stereo unspecified),-0.3,9.0
COc1ccc(C(C(=O)Nc2ccc3c(c2)OCCO3)n2c(=O)c(-c3cc4ccccc4[nH]3)nc3ccccc32)cc1 (stereo unspecified),34.1,21.6
CCCCNC(=O)c1nc(C2CCN(S(=O)(=O)c3ccc(OC(F)(F)F)cc3)CC2)oc1-c1ccccc1,5.4,4.4
CC1(C(=O)Nc2ccc3c(c2)OCCO3)CN(S(C)(=O)=O)CC(=O)N1CC(F)(F)F (stereo unspecified),-7.3,-3.1
Cc1ccc(S(=O)(=O)N2[C@H](CC(=O)c3ccc(Cl)c(Cl)c3)OC[C@@H]2C(C)C)cc1,15.3,-2.2
COc1ccccc1-c1cn(CC[C@H]2CC[C@@H](NS(=O)(=O)c3ccccc3C)[C@@H](CO)O2)nn1,4.7,-24.6
CC(=O)Nc1cccc(-c2nc3ccccc3n2C(C)C(=O)NC(C)(C)C)c1 (stereo unspecified),28.9,0.0
COC(=O)[C@@]12C[C@@H](CC(=O)NCC34CC5CC(CC(C5)C3)C4)C(=O)N(Cc3ccc4c(c3)OCO4)C1=CCC(C)(C)C2,-3.5,-5.4
CN(Cc1ccccc1)C(=O)C(=O)c1ccccc1,11.0,-0.7
O=C(Nc1ccc2c(c1)OCCO2)C(C1CC1)n1c(=O)c(-c2cc3ccccc3[nH]2)nc2ccccc21 (stereo unspecified),32.8,9.9
CNC(=O)C[C@@H]1CC[C@@H]2[C@H](COC[C@H](O)CN2S(=O)(=O)c2ccccc2Cl)O1,6.5,9.5
COC(=O)[C@@]12C[C@@H](CC(=O)N3CCCC3)C(=O)N(CCc3ccc(OC)c(OC)c3)C1=CCC(C)(C)C2,-6.3,-1.2

# An excerpt from above in order of the Six1-Eya2 blk value, ascending:
SMILES,Six1-Eya2 blk,CtBP-E1A inh
Cc1ccc(CN2C(=O)CSCC2(C)C(=O)Nc2c(C)cccc2C)cc1 (stereo unspecified),-4.6,-0.9
CCOC(=O)[C@]12CCCC=C1N(Cc1ccccc1)C(=O)[C@H](CC(=O)N1CCOCC1)C2,-1.6,-1.7
CCCCNC(=O)c1nc(C2CCN(S(=O)(=O)c3ccc(OC(F)(F)F)cc3)CC2)oc1-c1ccccc1,5.4,4.4

# Returning to the listing, repeating the five entries before the break.
SMILES,Six1-Eya2 blk,CtBP-E1A inh
COC(=O)[C@@]12C[C@@H](CC(=O)NCC34CC5CC(CC(C5)C3)C4)C(=O)N(Cc3ccc4c(c3)OCO4)C1=CCC(C)(C)C2,-3.5,-5.4
CN(Cc1ccccc1)C(=O)C(=O)c1ccccc1,11.0,-0.7
O=C(Nc1ccc2c(c1)OCCO2)C(C1CC1)n1c(=O)c(-c2cc3ccccc3[nH]2)nc2ccccc21 (stereo unspecified),32.8,9.9
CNC(=O)C[C@@H]1CC[C@@H]2[C@H](COC[C@H](O)CN2S(=O)(=O)c2ccccc2Cl)O1,6.5,9.5
COC(=O)[C@@]12C[C@@H](CC(=O)N3CCCC3)C(=O)N(CCc3ccc(OC)c(OC)c3)C1=CCC(C)(C)C2,-6.3,-1.2
CC1(C)CC(Cc2ccccc2C(F)(F)F)N(C(=O)OC(C)(C)C)C1 (stereo unspecified),9.9,7.8
CCCCNC(=O)c1nc(-c2cnccn2)oc1-c1ccc(Cl)cc1,11.6,10.6
O=C(NCc1ccccc1)C(CCc1ccccc1)n1c(=O)c(-c2ccccc2)nc2ccccc21 (stereo unspecified),22.8,0.0
CC(C)[C@H](NC(=O)OC(C)(C)C)c1cc(C(=O)NC2CC2)c(N)s1,1.6,0.0
CO[C@H]1CN(C)C(=O)c2ccc(NC(=O)C3CCC3)cc2OC[C@H](C)N(Cc2ccccn2)C[C@@H]1C,0.8,5.9
COc1ccc(C(C(=O)Nc2c(C)cccc2C)n2c(=O)c(-c3ccccc3)nc3ccccc32)cc1 (stereo unspecified),-3.8,-0.8
CCOC(=O)[C@]12CCCC=C1N(CCc1ccc(OC)c(OC)c1)C(=O)[C@H](CC(=O)N1CCSCC1)C2,-7.0,4.1
Cc1cccc(-c2ccc([N+](=O)[O-])cc2CN2CCN(c3ncc(Cc4ccccc4)cn3)CC2)c1,-14.3,-13.6
CC(C)(C)NC(=O)C(c1ccccc1F)n1c(=O)c(-c2ccco2)nc2ccccc21 (stereo unspecified),-1.5,5.9
CO[C@@H]1CN(C)C(=O)c2ccc(NC(C)=O)cc2OC[C@@H](C)N(C(=O)NC2CCCCC2)C[C@H]1C,2.7,-1.5
Cc1ccc(CN2C(=O)CSCC2(C)C(=O)NC(C)C)cc1 (stereo unspecified),9.1,-0.4
CC(C)(C)N1C(=O)c2ccccc2NC(=O)C1C(=O)NCc1ccco1 (stereo unspecified),-0.1,6.4
CC1(c2nnnn2C2CCCC2)CCC(=O)N1c1ccc2c(c1)OCCO2 (stereo unspecified),12.7,0.0
COC(=O)C(C(=O)OC)c1ccccc1NS(=O)(=O)c1ccc(C)cc1,-0.8,7.9
C[C@H](NC(=O)C[C@@H]1CC[C@H]2[C@@H](COC[C@H](O)CN2Cc2ccc(C(F)(F)F)cc2)O1)c1ccccc1,-5.3,3.7
Cn1cc([C@]2(O)C(=O)Nc3ccc(Br)cc32)c2ccccc21,-16.4,-0.8
Cc1cccc(S(=O)(=O)N[C@@H]2CC[C@@H](CCNS(=O)(=O)c3ccccc3F)O[C@@H]2CO)c1,-1.1,5.4
CCCCNC(=O)C(NC(=O)c1ccc(C(F)(F)F)cc1)C(=O)c1ccccc1 (stereo unspecified),-0.4,5.3
CC(C)(C)NC(=O)C(c1ccnc2ccccc12)n1c(=O)c(-c2ccco2)nc2ccccc21 (stereo unspecified),-8.7,2.5
CC1(C(=O)Nc2ccc3c(c2)OCCO3)CSCC(=O)N1CCOc1ccccc1 (stereo unspecified),-5.4,0.0
CCC(=O)N[C@@H]1CC[C@@H](CCNC(=O)Nc2ccc(F)cc2)O[C@@H]1CO,-5.5,9.7
CCc1ccc(N2C=C(C(=O)OC)C(c3ccc(OC)cc3)C(C#N)=C2N)cc1 (stereo unspecified),1.8,-6.5
CCOC(=O)C1=CCN(S(=O)(=O)c2ccccc2C)C1c1cccc(Cl)c1 (stereo unspecified),17.8,-0.2
CCNC(=O)C[C@@H]1CC[C@@H]2NC[C@@H](O)COC[C@H]2O1,2.3,-23.5
Cc1cccc(S(=O)(=O)N2C[C@@H](O)COC[C@@H]3O[C@H](CC(=O)NCCCN4CCOCC4)CC[C@H]32)c1,-0.8,9.7
COC(=O)C[C@@H]1CC[C@@H](NC(=O)Nc2cc(F)ccc2F)[C@@H](CO)O1,7.0,-0.5

# One compound at a time, from the list above. Order of screens: Six1-Eya2 blk, CtBP-E1A inh
# CCCCNC(=O)c1nc(-c2cnccn2)oc1-c1ccc(Cl)cc1 in the list: 11.6, 10.6
# CCCCNC(=O)C(NC(=O)c1ccc(C(F)(F)F)cc1)C(=O)c1ccccc1 (stereo unspecified) in the list: -0.4, 5.3

# Some of the entries so far, with two lines to a compound:
# Each structure is followed by: Six1-Eya2 blk | CtBP-E1A inh
- CC(C)[C@H](NC(=O)OC(C)(C)C)c1cc(C(=O)NC2CC2)c(N)s1
    1.6 | 0.0
- COC(=O)C(C(=O)OC)c1ccccc1NS(=O)(=O)c1ccc(C)cc1
    -0.8 | 7.9
- Cc1cccc(S(=O)(=O)N[C@@H]2CC[C@@H](CCNS(=O)(=O)c3ccccc3F)O[C@@H]2CO)c1
    -1.1 | 5.4
- CCNC(=O)C[C@@H]1CC[C@@H]2NC[C@@H](O)COC[C@H]2O1
    2.3 | -23.5
- CC1(C(=O)Nc2ccc3c(c2)OCCO3)CSCC(=O)N1CCOc1ccccc1 (stereo unspecified)
    -5.4 | 0.0
- COc1ccc(C(C(=O)Nc2c(C)cccc2C)n2c(=O)c(-c3ccccc3)nc3ccccc32)cc1 (stereo unspecified)
    -3.8 | -0.8

# A portion of the library; rates above refer to the full screens.
